# Vaccinia inh: blocks a specific stage of Vaccinia orthopoxvirus infection, primary screen, cell-based, single point | Vaccinia-infected cells, mCherry/Venus stage reporter fluorescence; active compounds read low; some inactives read as strong as hits | activity change (mCherry), % (concentration not given with the values) | actives 0.01% (n = 89,000) | AID 1053133, 2014;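 active = mCherry past -33% and 40 or more points under the early reporter, replicates agreeing; inconclusive = past -33% without that gap or agreement; tested in A549 cells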;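 note: scaled between vehicle wells and reference inhibitor wells; 23 nL library stock went into each well; one replicate is shown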
# Vaccinia inh Venus: further read-out of Vaccinia inh, marked with its call; activity change (Venus), %; measured here: Venus reporter, other viral stage;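 negative = less Venus signal; first of two replicates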
# Numbers without * were called inactive; ? = inconclusive; . = not tested or not shown; & = joins results of further samples. These rows are one share of the data. The share of hits here may be higher or lower than overall.
# Fields – Vaccinia inh | Vaccinia inh Venus
- C[C@@H]1CN([C@H](C)CO)C(=O)c2cc(C#Cc3ccccn3)cnc2O[C@@H]1CN(C)Cc1cccnc1
→ 7 | 6
- COC(=O)N(C)C[C@@H]1OCc2cnnn2CCCC(=O)N([C@H](C)CO)C[C@@H]1C
→ ? | 23
- CCCNC(=O)Nc1ccc2c(c1)OC[C@@H](C)N(C(=O)C1CCCCC1)C[C@@H](C)[C@H](OC)CN(C)C2=O
→ -8 | -4
- Cc1ccc(S(=O)(=O)N(C)C[C@@H]2Oc3ncc(C#CCC(C)C)cc3C(=O)N([C@@H](C)CO)C[C@H]2C)cc1
→ -33 | -25
- C[C@@H]1CN([C@H](C)CO)S(=O)(=O)c2ccc(-c3ccncc3)cc2O[C@H]1CN(C)Cc1ccc(Oc2ccccc2)cc1
→ -15 | -12
- O=C(NC1CCCCC1)N1CC(=O)N2[C@H](CO)[C@H](c3ccc(-c4cccnc4)cc3)[C@@H]2C1
→ 10 | 9
- COCC(=O)NC[C@H]1[C@@H](c2ccccc2)[C@@H](CO)N1C(C)=O
→ 7 | 9
- Cc1ccc(S(=O)(=O)Nc2ccc3c(c2)C(=O)N([C@H](C)CO)C[C@H](C)[C@H](CN(C)Cc2ccc(C(F)(F)F)cc2)OCCCC[C@H](C)O3)cc1
→ ? | .
- C[C@@H]1CCCCO[C@@H](CN(C)C(=O)Nc2ccc(F)cc2)[C@H](C)CN([C@@H](C)CO)C(=O)c2cc(NC(=O)Nc3ccc(F)cc3)ccc2O1
→ 15 | 11
- O=C(C[C@H]1C=C[C@@H](NC(=O)Cc2ccccn2)[C@@H](CO)O1)NCCc1ccccc1
→ -2 | -8
- O=C(C[C@H]1CC[C@H]2[C@@H](COC[C@@H](O)CN2C(=O)Nc2ccc(C(F)(F)F)cc2)O1)NC1Cc2ccccc2C1
→ -16 | -15
- CCNC(=O)C[C@@H]1CC[C@@H]2[C@H](COc3ccc(NC(=O)Nc4ccccc4OC)cc3C(=O)N2C)O1
→ 0 | -2
- C[C@H]1CCCCO[C@H](CN(C)C(=O)Nc2ccccc2)[C@@H](C)CN([C@@H](C)CO)C(=O)c2cc(NC(=O)Cc3ccccc3)ccc2O1
→ -23 | -23
- CC(C)CC#Cc1ccc2c(c1)O[C@H](CN(C)C(=O)c1cnccn1)[C@H](C)CN([C@@H](C)CO)S2(=O)=O
→ 3 | -3
- COc1ccc(CN(C)C[C@@H]2Oc3c(NC(=O)Nc4ccc(OC)cc4)cccc3C(=O)N([C@H](C)CO)C[C@H]2C)cc1
→ 23 | 15
- C[C@@H]1CN([C@H](C)CO)C(=O)Cc2cc(NC(=O)C3CCCCC3)ccc2O[C@H]1CN(C)Cc1ccc(C(=O)Nc2ccccc2N)cc1
→ 0 | -3
- CC=Cc1ccc2n(c1=O)C[C@@H]1[C@@H](CO)[C@H](C(=O)Nc3ccc(-c4ccccc4)cc3)N(CC)[C@H]21 (mixture of isomers)
→ -30 | -13
- C[C@H](CO)N1C[C@H](C)[C@H](CN(C)Cc2ccc(C(=O)O)cc2)Oc2c(NC(=O)Nc3ccc(F)cc3)cccc2C1=O
→ 3 | 0
- CO[C@H]1CN(C)C(=O)c2cc(NC(=O)Nc3cc(F)ccc3F)ccc2OC[C@@H](C)N(C(=O)c2cnccn2)C[C@H]1C
→ 3 | 1
- Cc1ccc(S(=O)(=O)N[C@H]2CC[C@H](CCNS(=O)(=O)Cc3ccccc3)O[C@H]2CO)cc1
→ -29 | -17
- O=C(N[C@H]1CC[C@@H](CCNC(=O)C2CCOCC2)O[C@H]1CO)c1ccncc1
→ -7 | 4
- C[C@H]1CN([C@@H](C)CO)S(=O)(=O)c2ccc(C#Cc3ccccc3)cc2O[C@H]1CN(C)C(=O)Nc1ccccc1
→ ? | .
- C[C@H](CO)N1C[C@H](C)[C@@H](CN(C)Cc2ccc(C(F)(F)F)cc2)Oc2c(NC(=O)CCCCCC(=O)Nc3ccccc3N)cccc2C1=O
→ ? | .
- COc1ccccc1CNC(=O)C[C@@H]1C[C@@H]2c3cc(NC(=O)CN(C)C)ccc3O[C@@H]2[C@H](CO)O1
→ -3 | -5
- COc1ccccc1NC(=O)N[C@H]1CC[C@H](CCn2cc(C3(O)CCCC3)nn2)O[C@@H]1CO
→ -13 | 3
- C[C@@H]1CCCCO[C@H](CN(C)CC2CCCCC2)[C@H](C)CN([C@H](C)CO)C(=O)c2cc(NS(=O)(=O)c3cccs3)ccc2O1
→ ? | .
- CC(=O)Nc1ccc(/C=N/NC(=O)CC2CCCCC2)cc1
→ 4 | 8
- CCCC(=O)Nc1ccc2c(c1)C(=O)N(C)C[C@H](OC)[C@@H](C)CN(C)[C@@H](C)CO2
→ 7 | 3
- O=S(=O)(c1ccccc1)N1CCCCN2[C@@H](CO)[C@@H](c3ccc(C#Cc4ccccn4)cc3)[C@@H]2C1
→ -11 | -11
- CO[C@H]1CN(C)C(=O)c2ccc(NC(=O)Nc3cc(F)ccc3F)cc2OC[C@H](C)N(C)C[C@H]1C
→ -30 | -14
- C[C@H]1CN([C@@H](C)CO)S(=O)(=O)c2ccc(C3=CCCC3)cc2O[C@H]1CN(C)Cc1ccncc1
→ -8 | -1
- CO[C@H]1CN(C)C(=O)c2cc(NC(=O)c3ccno3)ccc2OC[C@H](C)NC[C@@H]1C
→ 9 | 34
- COCC(=O)N1CC2(C1)[C@H](c1ccccc1)[C@@H](CO)N2Cc1ccccc1OC
→ 3 | 6
- C[C@@H]1CN([C@@H](C)CO)C(=O)c2cc(-c3cccnc3)cnc2O[C@H]1CN(C)C(=O)C1CCC1
→ 0 | 4
- CN(C)C(=O)C[C@@H]1C[C@H]2c3cc(NS(=O)(=O)c4ccccc4)ccc3O[C@H]2[C@H](CO)O1
→ 7 | 0
- O=C(O)C[C@@H]1CC[C@@H](NC(=O)Nc2cc(F)ccc2F)[C@H](CO)O1
→ 4 | 6
- CCCNC(=O)N1[C@H](CO)[C@H](c2ccccc2)[C@H]1CNC(C)=O
→ 21 | 22
- COCC#Cc1ccc(CC[C@H]2O[C@H]3CC[C@H](CO)O[C@H]3C[C@H]2n2cc(C3CC3)nn2)cc1
→ -7 | -1
- O=C(C[C@@H]1CC[C@H](NC(=O)c2cnccn2)[C@H](CO)O1)NCc1ccccc1F
→ 28 | 22
- Cc1cccc(S(=O)(=O)N2CCCCN3[C@@H](CO)[C@H](c4ccc(-c5ccncc5)cc4)[C@@H]3C2)c1
→ -6 | -13
- C[C@@H]1CCCCO[C@@H](CN(C)C(=O)C2CCCCC2)[C@@H](C)CN([C@@H](C)CO)C(=O)c2cc(NC(=O)Cc3ccccc3)ccc2O1
→ -22 | -21
- C/C=C/c1ccc2c(c1)O[C@@H](CN(C)C(=O)Nc1cccc(F)c1)[C@H](C)CN([C@@H](C)CO)S2(=O)=O
→ ? | .
- CCS(=O)(=O)Nc1ccc2c(c1)C(=O)N(C)C[C@H](OC)[C@H](C)CN(Cc1nccs1)[C@@H](C)CO2
→ 19 | 2
- O=C(C[C@H]1CC[C@@H](NC(=O)C2CCC2)[C@@H](CO)O1)NCCCN1CCOCC1
→ -5 | -4
- O=C(O)C[C@@H]1C[C@@H]2c3cc(NC(=O)C4CCOCC4)ccc3O[C@@H]2[C@H](CO)O1
→ 25 | 20
- C[C@H](CO)N1C[C@H](C)[C@H](CN(C)C(=O)Nc2cccc3ccccc23)OCc2cnnn2CCCC1=O
→ 20&17 | 29&10
- COc1ccccc1-c1ccc([C@@H]2[C@@H](CO)N3CCCCN(Cc4ccncc4)C[C@H]23)cc1
→ 10 | 2
- COc1cccc(CN2CC3(CCN(C)CC3)c3c([nH]c4cc(OC)ccc34)[C@H]2CO)c1
→ -34 | -35
- C[C@H](NC(=O)C[C@H]1C[C@H]2c3cc(NS(C)(=O)=O)ccc3O[C@H]2[C@H](CO)O1)c1ccccc1
→ -1 | -4
- CC(=O)NC[C@H]1[C@@H](c2ccc(C3=CCCC3)cc2)[C@@H](CO)N1C(=O)CN(C)C
→ -2 | -6
- COc1ccc(NC(=O)N(C)C[C@@H]2Oc3ccc(NS(=O)(=O)c4ccc(OC)cc4)cc3CC(=O)N([C@H](C)CO)C[C@@H]2C)cc1
→ -1 | 2
- C[C@H](CO)N1C[C@H](C)[C@@H](CN(C)CC2CC2)Oc2c(NC(=O)C3CC3)cccc2C1=O
→ 11 | 9
- C[C@H](CO)N1C[C@H](C)[C@@H](CN(C)C(=O)NC2CCCCC2)Oc2c(NC(=O)Nc3ccc(C(F)(F)F)cc3)cccc2C1=O
→ ? | .
- C[C@H]1CCCCO[C@H](CN(C)CC2CCCCC2)[C@@H](C)CN([C@@H](C)CO)C(=O)c2cc(NC(=O)Nc3cccc4ccccc34)ccc2O1
→ ? | .
- CCS(=O)(=O)N[C@H]1CC[C@H](CC(=O)Nc2ccc(-c3ccccc3)cc2)O[C@H]1CO
→ 12 | 19
- C[C@H]1CN([C@@H](C)CO)C(=O)c2cccc(NS(=O)(=O)c3ccc(F)cc3)c2O[C@H]1CN(C)Cc1ccc2c(c1)OCO2
→ -3 | 0
- Cc1ccc(-c2cnc3c(c2)C(=O)N([C@H](C)CO)C[C@@H](C)[C@@H](CN(C)C(=O)c2ccc(F)cc2)O3)cc1
→ 0 | -2
- COc1ccc(S(=O)(=O)N(C)C[C@@H]2Oc3ccc(NS(=O)(=O)c4ccccc4)cc3CC(=O)N([C@H](C)CO)C[C@H]2C)cc1
→ 12 | 4
- CS(=O)(=O)Nc1ccc2c(c1)[C@@H]1C[C@H](CC(=O)NCc3ccncc3)O[C@H](CO)[C@@H]1O2
→ 1 | 4
- C[C@@H]1CN([C@@H](C)CO)C(=O)c2cccc(NS(=O)(=O)c3ccc(F)cc3)c2O[C@H]1CN(C)Cc1ccc(-c2ccccc2)cc1
→ ? | .

# The listing continues.
# Fields – Vaccinia inh | Vaccinia inh Venus
- O=C(C1CCCC1)N1CC(=O)N2[C@@H](CO)[C@H](c3ccc(Br)cc3)[C@@H]2C1
→ 9 | 6
- C[C@@H]1CN([C@@H](C)CO)S(=O)(=O)c2ccc(C#Cc3ccncc3)cc2O[C@@H]1CN(C)C(=O)C1CCCCC1
→ ? | .
- C[C@@H]1CCCCO[C@@H](CN(C)CC2CC2)[C@@H](C)CN([C@H](C)CO)C(=O)c2cc(NC(=O)Nc3ccccc3)ccc2O1
→ 11 | -8
- C[C@@H]1CN([C@@H](C)CO)C(=O)c2cccc(NS(C)(=O)=O)c2O[C@@H]1CN(C)S(C)(=O)=O
→ 25 | 17
- CCCC(=O)Nc1ccc2c(c1)C(=O)N(C)C[C@H](OC)[C@H](C)CN(C(=O)c1ccncc1)[C@@H](C)CO2
→ 15 | 12
- Cc1cccc(S(=O)(=O)N(C)C[C@@H]2OCc3ccccc3-c3c(n(C)c4ccccc34)C(=O)N([C@@H](C)CO)C[C@H]2C)c1
→ ? | .
- Cn1cnc(S(=O)(=O)N2CCCCN3[C@@H](CO)[C@H](c4ccc(-c5cccc(F)c5)cc4)[C@@H]3C2)c1
→ -12 | -19
- CO[C@H]1CN(C)C(=O)c2ccc(NC(=O)Nc3ccccc3)cc2OC[C@H](C)NC[C@H]1C
→ -8 | -6
- CN1C(=O)c2cc(NC(=O)Cc3ccccc3)ccc2OC[C@H]2O[C@H](CC(=O)NC3CCC3)CC[C@H]21
→ -1 | -2
- CNC[C@H]1Oc2ccc(NS(=O)(=O)c3cccs3)cc2CC(=O)N([C@H](C)CO)C[C@H]1C
→ -9 | 12
- COc1ccc2c3c(n(C)c2c1)[C@H](CO)N(C(=O)Nc1ccc(F)cc1)CC31CCN(C(=O)NC2CCCC2)CC1
→ ? | .
- CCCC#Cc1cnc2c(c1)C(=O)N([C@@H](C)CO)C[C@@H](C)[C@@H](CN(C)C(=O)Cc1ccccc1)O2
→ -24 | -17
- C[C@@H]1CN([C@@H](C)CO)C(=O)c2cc(NC(=O)Cc3ccccc3)ccc2O[C@@H](C)CCCCO[C@H]1CN(C)C(=O)Nc1ccccc1
→ -20 | -16
- CO[C@H]1O[C@H](CO)[C@@H](OC(=O)Nc2cccc(F)c2)[C@H](OC(=O)Nc2ccc3c(c2)OCO3)[C@H]1OC(=O)Nc1ccc2c(c1)OCO2
→ ? | .
- C[C@@H]1CN([C@H](C)CO)C(=O)c2cc(NC(=O)Nc3cccc4ccccc34)ccc2O[C@H]1CN(C)S(=O)(=O)c1ccc(F)cc1
→ 20 | 2

# Random excerpt: 6 records from the list
# Fields – Vaccinia inh | Vaccinia inh Venus
- C[C@@H]1CN([C@@H](C)CO)C(=O)c2cccc(NS(C)(=O)=O)c2O[C@@H]1CN(C)S(C)(=O)=O
→ 25 | 17
- O=C(C1CCCC1)N1CC(=O)N2[C@@H](CO)[C@H](c3ccc(Br)cc3)[C@@H]2C1
→ 9 | 6
- COc1ccc2c3c(n(C)c2c1)[C@H](CO)N(C(=O)Nc1ccc(F)cc1)CC31CCN(C(=O)NC2CCCC2)CC1
→ ? | .
- Cn1cnc(S(=O)(=O)N2CCCCN3[C@@H](CO)[C@H](c4ccc(-c5cccc(F)c5)cc4)[C@@H]3C2)c1
→ -12 | -19
- Cc1cccc(S(=O)(=O)N(C)C[C@@H]2OCc3ccccc3-c3c(n(C)c4ccccc34)C(=O)N([C@@H](C)CO)C[C@H]2C)c1
→ ? | .
- CCCC(=O)Nc1ccc2c(c1)C(=O)N(C)C[C@H](OC)[C@H](C)CN(C(=O)c1ccncc1)[C@@H](C)CO2
→ 15 | 12

# (continued)
# Fields – Vaccinia inh | Vaccinia inh Venus
- N#C[C@H]1[C@@H](c2ccccc2-c2ccccc2)[C@@H](CO)N1C(=O)NC1CCCC1
→ -3 | -1
- COCC(=O)N1C[C@@H](C)[C@@H](OC)CN(C)C(=O)c2ccc(NC(=O)Nc3ccccc3)cc2OC[C@@H]1C
→ 12 | 10
- COc1ccccc1S(=O)(=O)N[C@H]1CC[C@H](CC(=O)NCc2cccc(F)c2)O[C@H]1CO
→ 3 | -6
- O=C(c1ccc(F)cc1)N1CCCCN2[C@@H](CO)[C@H](c3ccc(-c4ccccc4)cc3)[C@@H]2C1
→ ? | .
- C[C@@H]1CCCCO[C@@H](CN(C)C(=O)CCC(F)(F)F)[C@@H](C)CN([C@H](C)CO)C(=O)c2cc(NC(=O)C3CCCCC3)ccc2O1
→ 11 | 10

# High-throughput results: PubChem BioAssay, Broad Institute
